T cruzi repl: blocks replication of Trypanosoma cruzi; T. cruzi beta-gal in NIH3T3, luminescence, 90 h; inhibition, % (test concentration not listed); 1.4% of 300,000 active; AID 1885;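 active = mean inhibition across valid replicates above about 55%, limit read from the data; inconclusive = mean below that limit but half or more replicates reach it; inactive = mean below it, under half of replicates reach it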;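 note: signal also drops with host cell toxicity which is not excluded here; 0% = plate median of DMSO wells and 100% = zero luminescence signal; higher percent means less beta-gal luminescence so fewer parasites; stock transfer was 50 nL into about 50 µL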
Beta apoptosis: beta cell apoptosis inhibition; INS-1E cytokine-induced death, ATP luminescence, 48 h; percent of positive-control rescue, neutral wells zero; protection from apoptosis, % (no concentration beside the values); 0.8% of 300,000 active;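 active = all replicates at 75% or more, or half of them and the mean; inconclusive = half reach 75% but not the mean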;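 note: 0% = cytokine-treated negative control wells and 100% = positive control rescue; higher means more ATP so stronger rescue from cytokine killing; wells of about 40 µL received 100 nL stock; the first replicate is given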
AF4-AF9 inh: inhibitors of human MLL-AF4/AF9 interaction. inhibition, % at 10 µM. AID 651704. AlphaScreen, biotin-AF4 peptide binding to FLAG-AF9. P42568. 0.47% of 350,000 active;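 active = every replicate reaching a set inhibition limit, whatever the replicate mean, cut at about 25% in these data; inconclusive = mean inhibition reaches that limit but some replicates miss it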;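 note: 0% = plate neutral control median and 100% = total signal loss; the record names both 10 and 1 µM as test concentration; the first replicate is given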
Target sequence (P42568 whole entry, looked up): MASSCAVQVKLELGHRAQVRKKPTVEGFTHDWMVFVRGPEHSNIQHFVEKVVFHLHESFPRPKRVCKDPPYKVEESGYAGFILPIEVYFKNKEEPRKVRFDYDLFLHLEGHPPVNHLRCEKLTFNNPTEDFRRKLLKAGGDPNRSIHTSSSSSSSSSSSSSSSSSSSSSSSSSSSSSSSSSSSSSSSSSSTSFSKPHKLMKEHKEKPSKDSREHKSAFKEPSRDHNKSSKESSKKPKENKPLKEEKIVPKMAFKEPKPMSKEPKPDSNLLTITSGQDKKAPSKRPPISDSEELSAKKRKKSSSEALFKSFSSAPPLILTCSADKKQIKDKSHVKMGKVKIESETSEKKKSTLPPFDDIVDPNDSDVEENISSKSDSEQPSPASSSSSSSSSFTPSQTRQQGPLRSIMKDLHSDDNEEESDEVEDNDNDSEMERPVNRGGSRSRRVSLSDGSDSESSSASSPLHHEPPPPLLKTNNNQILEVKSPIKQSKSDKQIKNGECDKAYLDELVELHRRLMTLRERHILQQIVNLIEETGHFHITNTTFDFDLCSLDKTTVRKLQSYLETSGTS
UCH37 inh: inhibitors of human deubiquitinating enzyme UCH37 | Q9Y5K5 | purified proteasome/UCH37, Ub-AMC cleavage fluorescence | inhibition, % (test concentration not listed) | 0.33% of 330,000 active;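 active = mean of two replicates above 20%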;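 note: 0% = compound-free wells with enzyme and 100% = wells lacking proteasome; stock transfer was 100 nL into about 20 µL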
Target sequence (Q9Y5K5 whole entry, looked up): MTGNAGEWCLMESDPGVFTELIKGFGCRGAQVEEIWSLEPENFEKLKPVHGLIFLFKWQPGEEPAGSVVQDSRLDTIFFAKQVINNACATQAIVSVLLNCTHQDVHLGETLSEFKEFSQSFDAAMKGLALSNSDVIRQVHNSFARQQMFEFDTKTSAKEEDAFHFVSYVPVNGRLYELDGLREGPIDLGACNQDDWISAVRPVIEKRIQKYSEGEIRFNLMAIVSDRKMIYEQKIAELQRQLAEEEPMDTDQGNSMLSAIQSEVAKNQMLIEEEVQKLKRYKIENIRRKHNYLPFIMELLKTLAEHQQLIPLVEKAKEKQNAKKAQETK
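Reagent: Ub-AMC substrate; assay system: Proteasome-associated human UCH37 deubiquitinase; controls: no-proteasome and no-compound wells; read-out: % inhibition of Ub-AMC cleavage fluorescence; timing: 30 min preincubation with enzyme, 25 min cleavage at room temperature; signal: AMC fluorescence from Ub-AMC cleavage, excitation 355 nm, emission 460 nm; buffer or medium: Tris-HCl pH 7.4 plus ovalbumin, ATP-MgCl2, DTT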
E coli growth: inhibitors of Escherichia coli growth. 0.21% of 330,000 active. OD600, 23 h; stronger effect = lower value. OD600 absorbance (no concentration beside the values). AID 1053175;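 active = OD600 absorbance below the run mean of sample wells minus 3.6 SD, in any replicate, cut at about 0.56 in these data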;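 note: stock transfer was 300 nL into about 60 µL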
A1 inh: inhibitors of the anti-apoptotic protein A1, read as caspase activation; MEF A1-2A-BIM cells, Caspase-Glo 3/7 luminescence, 3 h; percent of clofoctol response, vehicle zero; caspase activation, % (test concentration not listed); 0.066% of 330,000 active; AID 2462;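 active = over half of replicate activation scores above 10%, or exactly half above 10 with the replicate mean above 10; inconclusive = replicate mean below 10 yet half the replicates above 10; inactive = over half of replicates below 10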;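 note: wells of about 30 µL received 50 nL stock; many hits fall short of the cut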
FGF22 binding: binders of recombinant human FGF22 by thermal shift; calls only at 9.99 µM; AID 651658; SYPRO orange fluorescence; percent of sucrose octasulfate shift, DMSO zero; 1.5% of 340,000 active;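 active = melting point raised past a set limit in the mean and every replicate; inconclusive = no clear call; three in four hits are not shown here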
Target sequence (Q9HCT0 whole entry, looked up): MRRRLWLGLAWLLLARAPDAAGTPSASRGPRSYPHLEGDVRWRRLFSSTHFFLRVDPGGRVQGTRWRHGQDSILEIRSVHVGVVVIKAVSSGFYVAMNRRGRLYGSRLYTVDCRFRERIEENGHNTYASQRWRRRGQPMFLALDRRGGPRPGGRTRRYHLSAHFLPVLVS
Ecoli rRNA inh: inhibitors of bacterial rRNA selective over humanized ribosomes; E. coli WT GFP vs humanized-ribosome RFP mutants, fluorescence, 24 h; stronger effect = lower value; DMSO median 0, no signal -100; 1.6% of 350,000 active; GFP signal change (wild-type ribosome), % (no concentration beside the values);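 active = significant combined selectivity score with lowered wild-type GFP, culture density cut under 30%, mutant RFP and density less affected; inactive = any of these conditions unmet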; note: one replicate is shown; some compounds called inactive have numbers as strong as hits
Ecoli rRNA inh OD600: recorded beside Ecoli rRNA inh, whose call it bears; OD600 change, %; measured here: OD600 growth;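 optical density of the mix in the first replicate; 0 = DMSO median and -100 = no signal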
Ecoli rRNA inh RFP: recorded beside Ecoli rRNA inh, whose call it bears; RFP signal change, %; measured here: RFP humanized mutant strains;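 first replicate; 0 = DMSO median and -100 = no signal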
The depositor's hits bear a star. Not all compounds are listed. The share of hits here may be higher or lower than overall.

Screening COc1ccccc1NS(=O)(=O)c1cccc(NC(=O)c2cc3ccccc3oc2=O)c1 returned T cruzi repl -18, Beta apoptosis 11, AF4-AF9 inh -2.9, UCH37 inh 0.6, E coli growth 0.64, A1 inh 0.4, FGF22 binding active, Ecoli rRNA inh 7, Ecoli rRNA inh OD600 8 and Ecoli rRNA inh RFP -0.4.
COc1ccc(C(=O)CC(=O)c2ccc(F)cc2)cc1 was read as T cruzi repl -13, Beta apoptosis 0, AF4-AF9 inh 2.0, UCH37 inh 1.7, E coli growth 0.64, A1 inh -1.8 and FGF22 binding inactive.
O=C(COc1ccc(F)cc1)Nc1nc2c(s1)CCCC2 was read as T cruzi repl 2, Beta apoptosis 1, AF4-AF9 inh -0.5, UCH37 inh 0.3, E coli growth 0.67, A1 inh -1.4, FGF22 binding inactive, Ecoli rRNA inh -8, Ecoli rRNA inh OD600 -16 and Ecoli rRNA inh RFP -2.5.
For Cc1ccc(-c2cc(C(=O)NNC(=O)c3csc(N4CCOCC4)n3)c3ccccc3n2)cc1 the results were Beta apoptosis 8, AF4-AF9 inh -3.9, UCH37 inh 2.2, E coli growth 0.72, A1 inh -0.4, FGF22 binding inactive, Ecoli rRNA inh -19*, Ecoli rRNA inh OD600 -9.5* and Ecoli rRNA inh RFP 2.9*.
Screening Cc1ccc(C(=O)Oc2ccc(C(=S)N3CCOCC3)cc2)cc1 returned T cruzi repl -1, Beta apoptosis -7, AF4-AF9 inh 4.3, UCH37 inh 0.5, E coli growth 0.65, A1 inh -0.1, FGF22 binding inactive, Ecoli rRNA inh 15, Ecoli rRNA inh OD600 12 and Ecoli rRNA inh RFP 0.2.
Cc1cccc(NC(=S)/N=C(\N)Nc2nc(C)c3cc(C)ccc3n2)c1 was read as T cruzi repl 31, Beta apoptosis -13, AF4-AF9 inh 4.2, UCH37 inh 9.2, E coli growth 0.71, A1 inh -0.1, FGF22 binding inactive, Ecoli rRNA inh 2, Ecoli rRNA inh OD600 -1 and Ecoli rRNA inh RFP 1.2.
Screening Cc1ccc(NC(=O)C(C)OC(=O)/C=C/c2ccccc2)cc1 (centres undefined) returned T cruzi repl 1, Beta apoptosis -6, AF4-AF9 inh -0.5, UCH37 inh -0.1, E coli growth 0.72, A1 inh -0.8, FGF22 binding inactive, Ecoli rRNA inh 14, Ecoli rRNA inh OD600 16 and Ecoli rRNA inh RFP 2.6.
Screening Cc1nc(SCC(=O)NCc2cccs2)nc(C)c1C returned T cruzi repl -13, AF4-AF9 inh -0.1, UCH37 inh 3.2, E coli growth 0.71, A1 inh -0.7, FGF22 binding inactive, Ecoli rRNA inh 10, Ecoli rRNA inh OD600 9 and Ecoli rRNA inh RFP 0.4.
`COC(=O)/C(=C\Nc1cccc(Cl)c1C)c1ncc(C(F)(F)F)cc1Cl` gave T cruzi repl 10, Beta apoptosis 7, UCH37 inh -4.0, E coli growth 0.71 and A1 inh 0.2.
For O=C(Nc1ccc(-c2noc(-c3ccccc3F)n2)cc1)c1cccs1 the results were T cruzi repl -1, UCH37 inh -74, E coli growth 0.76 and A1 inh -4.6.
For N/C(=N\OC(=O)CCCN1C(=O)c2ccccc2C1=O)c1ccccn1 the results were T cruzi repl 6, Beta apoptosis -7, AF4-AF9 inh -2.5, UCH37 inh 0.8, A1 inh -1.3, FGF22 binding inactive, Ecoli rRNA inh 13, Ecoli rRNA inh OD600 10 and Ecoli rRNA inh RFP 3.2.
Screening CCc1ccc(/C=C2\SC(=S)N(CCC(=O)NC3=NCCS3)C2=O)cc1 returned T cruzi repl -16, Beta apoptosis -6, AF4-AF9 inh 0.0, UCH37 inh 4.2, A1 inh -0.8, FGF22 binding inactive, Ecoli rRNA inh 8, Ecoli rRNA inh OD600 5 and Ecoli rRNA inh RFP -2.1.
`O=C(Nc1nc2ccccc2s1)C1=NN(c2ccccc2)C(=O)CC1` gave T cruzi repl 1, Beta apoptosis 2, AF4-AF9 inh 2.4, UCH37 inh 0.4, E coli growth 0.67, A1 inh inconclusive, FGF22 binding inactive, Ecoli rRNA inh -12, Ecoli rRNA inh OD600 -28 and Ecoli rRNA inh RFP -1.9.
COc1ccc(-c2nnc(SCC(=O)N3CCOCC3)o2)cc1OC was read as T cruzi repl -9, Beta apoptosis 4, AF4-AF9 inh 0.7, UCH37 inh 5.3, E coli growth 0.76, A1 inh 0.4, FGF22 binding inactive, Ecoli rRNA inh -1, Ecoli rRNA inh OD600 -2 and Ecoli rRNA inh RFP 2.5.
For CCCCN(C(=O)CCCc1nc2ccccc2s1)c1c(N)n(CCCC)c(=O)[nH]c1=O the results were T cruzi repl 2, Beta apoptosis -5, AF4-AF9 inh -0.8, UCH37 inh 5.5, E coli growth 0.69, A1 inh 0.2, FGF22 binding inactive, Ecoli rRNA inh 10, Ecoli rRNA inh OD600 9 and Ecoli rRNA inh RFP -0.3.
Fc1ccccc1CSc1nnnn1-c1ccc2c(c1)OCO2 was read as T cruzi repl 3, Beta apoptosis -6, UCH37 inh 0.9, E coli growth 0.7 and A1 inh 1.2.
`CCOC(=O)N1CCN(C(=O)CCc2cc(OC)c(OC)c(OC)c2)CC1` gave T cruzi repl 21, Beta apoptosis -4, AF4-AF9 inh -1.6, UCH37 inh 0.2, E coli growth 0.69, A1 inh 2.5, FGF22 binding inactive, Ecoli rRNA inh 10, Ecoli rRNA inh OD600 11 and Ecoli rRNA inh RFP -1.6.
For CCN(CC)S(=O)(=O)c1ccc(C)c(NC(=O)COC(=O)[C@@H]2CCCN2C(=O)c2cccs2)c1 the results were T cruzi repl -2, Beta apoptosis 0, AF4-AF9 inh 1.9, UCH37 inh -1.1, E coli growth 0.68, A1 inh -0.7, FGF22 binding inactive, Ecoli rRNA inh -17, Ecoli rRNA inh OD600 -21 and Ecoli rRNA inh RFP 1.8.
Screening Cc1cc(C)cc(Nc2ccc(C(=O)O)cc2N)c1 returned T cruzi repl 2, Beta apoptosis 5, UCH37 inh 0.0, E coli growth 0.72 and A1 inh -0.1.
For Cn1c2ccccc2c2cnn(CC(=O)Nc3cccc(F)c3)c(=O)c21 the results were T cruzi repl 8, Beta apoptosis -2, AF4-AF9 inh 5.1, UCH37 inh -8.7, E coli growth 0.72, A1 inh 0.2, FGF22 binding inactive, Ecoli rRNA inh 10, Ecoli rRNA inh OD600 9 and Ecoli rRNA inh RFP 0.0.
CC1CCN(S(=O)(=O)c2cc3c4c(c2)C(C)C(=O)N4CCC3)CC1 (centres undefined) was read as T cruzi repl -5, Beta apoptosis -4, AF4-AF9 inh -0.7, UCH37 inh 0.1, E coli growth 0.67, A1 inh -1.3, FGF22 binding inactive, Ecoli rRNA inh 1, Ecoli rRNA inh OD600 3 and Ecoli rRNA inh RFP 1.0.
`CC1CCN(S(=O)(=O)c2cnc(Cl)c(Br)c2)CC1` gave T cruzi repl -11, Beta apoptosis -11, AF4-AF9 inh 27*, UCH37 inh 1.6, E coli growth 0.67, A1 inh 1.0, FGF22 binding inactive, Ecoli rRNA inh 11, Ecoli rRNA inh OD600 14 and Ecoli rRNA inh RFP 4.3.
For O=C(NCCc1ccccn1)c1ccc(NS(=O)(=O)c2ccc(F)cc2)cc1 the results were T cruzi repl 0, Beta apoptosis -16, AF4-AF9 inh 0.1, UCH37 inh -1.1, E coli growth 0.65, A1 inh -0.2, FGF22 binding inactive, Ecoli rRNA inh 4, Ecoli rRNA inh OD600 -4 and Ecoli rRNA inh RFP 0.5.
O=C(c1cccnc1)N1CCN(S(=O)(=O)c2cccc(Cl)c2)CC1 was read as T cruzi repl -6, Beta apoptosis -3, AF4-AF9 inh -1.9, UCH37 inh 3.2, E coli growth 0.7, A1 inh 1.7, FGF22 binding inactive, Ecoli rRNA inh 7, Ecoli rRNA inh OD600 13 and Ecoli rRNA inh RFP -1.6.
For Cc1cccc(NC(=O)c2ccc(C)c(S(=O)(=O)N3CCOCC3)c2)n1 the results were AF4-AF9 inh 7.0, UCH37 inh 0.7, E coli growth 0.69, FGF22 binding inactive, Ecoli rRNA inh -2, Ecoli rRNA inh OD600 -4 and Ecoli rRNA inh RFP 0.5.
For C=CCSc1nc(C)cc2c1C(=O)OC2 the results were T cruzi repl -14, Beta apoptosis -6, AF4-AF9 inh -1.8, UCH37 inh -0.4, E coli growth 0.7, A1 inh -0.5, Ecoli rRNA inh 4, Ecoli rRNA inh OD600 -3 and Ecoli rRNA inh RFP -4.9.
Screening CC(C)CC(=O)Nc1nnc(SCC(=O)NC2CCCCC2)s1 returned T cruzi repl -1, Beta apoptosis -9, AF4-AF9 inh -0.4, UCH37 inh -1.9, E coli growth 0.75, A1 inh 0.5, FGF22 binding inactive, Ecoli rRNA inh -4, Ecoli rRNA inh OD600 4 and Ecoli rRNA inh RFP -3.7.
`CC1(C)CC(NC(=O)C(=O)NCCc2ccc(Cl)cc2)CC(C)(C)N1` gave T cruzi repl 0, Beta apoptosis -3, AF4-AF9 inh -1.6, UCH37 inh 0.8, E coli growth 0.65, A1 inh 1.5, FGF22 binding inactive, Ecoli rRNA inh 6, Ecoli rRNA inh OD600 -6 and Ecoli rRNA inh RFP -7.0.
For O=C(NC1CCCCC1)c1cc2c(cc1Cl)N1CCCCCC1=NS2(=O)=O the results were AF4-AF9 inh 5.0, UCH37 inh 6.1, E coli growth 0.65, FGF22 binding inactive, Ecoli rRNA inh 9, Ecoli rRNA inh OD600 4 and Ecoli rRNA inh RFP -1.8.
For C/C(N)=C(/C#N)C(=O)COC(=O)c1ccc(C)c(S(=O)(=O)N2CCCCC2)c1 the results were T cruzi repl -12, UCH37 inh -0.3, E coli growth 0.73 and A1 inh 1.5.
Cc1cccc(NC(=O)Nc2ccccc2[N+](=O)[O-])n1 was read as T cruzi repl 2, Beta apoptosis -4, AF4-AF9 inh -1.6, UCH37 inh 2.2, E coli growth 0.69, A1 inh -1.8, FGF22 binding inactive, Ecoli rRNA inh 6, Ecoli rRNA inh OD600 7 and Ecoli rRNA inh RFP -1.9.
Screening Cc1cccc(NC(=O)c2cc(NC(=O)c3ccco3)ccc2N2CCCCC2)c1 returned T cruzi repl 18, Beta apoptosis -4, AF4-AF9 inh 5.5, UCH37 inh -108, E coli growth 0.7, A1 inh -0.3, FGF22 binding inactive, Ecoli rRNA inh 10, Ecoli rRNA inh OD600 7 and Ecoli rRNA inh RFP 7.4.
For Cc1cc(C)n2nc(C(=O)N3CCCC(Nc4ccc(F)c(F)c4)C3)cc2n1 (centres undefined) the results were T cruzi repl -8, Beta apoptosis -2, AF4-AF9 inh 1.7, UCH37 inh 3.1, E coli growth 0.71, A1 inh -0.5, FGF22 binding inactive, Ecoli rRNA inh 0, Ecoli rRNA inh OD600 9 and Ecoli rRNA inh RFP 0.3.

Screening results: PubChem, several laboratories
